From PubChem
TRPV1 potentiator = potentiators of human vanilloid receptor 1 (TRPV1). Q8NER1. TRPV1-expressing cells, Fluo-8 calcium influx, capsaicin EC20 potentiation; host cell line not named in the record; control for the full effect not named in the record. potentiation, % at 8.33 µM. 320,000 compounds, 0.02% hits. AID 540277; active means potentiation above 80%; inconclusive means 30% to 80%; inactive means below 30%; note: 0% is about no effect
Target sequence (Q8NER1 whole entry, looked up): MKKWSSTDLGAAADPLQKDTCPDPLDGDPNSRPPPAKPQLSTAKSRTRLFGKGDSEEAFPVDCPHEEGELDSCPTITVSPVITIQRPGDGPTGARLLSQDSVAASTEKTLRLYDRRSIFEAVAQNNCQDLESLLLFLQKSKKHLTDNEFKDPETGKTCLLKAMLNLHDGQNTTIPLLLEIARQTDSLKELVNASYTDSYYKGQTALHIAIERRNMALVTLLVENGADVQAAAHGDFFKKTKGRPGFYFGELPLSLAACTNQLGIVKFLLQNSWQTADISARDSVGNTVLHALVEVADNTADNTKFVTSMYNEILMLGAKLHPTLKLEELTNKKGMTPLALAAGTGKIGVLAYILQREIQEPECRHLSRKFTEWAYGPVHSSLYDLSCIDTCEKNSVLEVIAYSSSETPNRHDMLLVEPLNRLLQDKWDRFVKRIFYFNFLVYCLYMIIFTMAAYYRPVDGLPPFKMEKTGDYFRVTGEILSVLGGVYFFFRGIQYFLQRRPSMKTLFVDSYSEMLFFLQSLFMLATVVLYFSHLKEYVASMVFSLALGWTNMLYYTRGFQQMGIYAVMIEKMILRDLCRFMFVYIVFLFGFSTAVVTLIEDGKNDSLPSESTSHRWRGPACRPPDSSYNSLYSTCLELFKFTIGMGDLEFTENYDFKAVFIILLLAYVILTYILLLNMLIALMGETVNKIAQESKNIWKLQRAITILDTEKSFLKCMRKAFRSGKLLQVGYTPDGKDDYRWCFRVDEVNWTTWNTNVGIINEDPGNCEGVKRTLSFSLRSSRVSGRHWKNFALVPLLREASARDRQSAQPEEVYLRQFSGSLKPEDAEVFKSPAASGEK
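TRPV1-expressing cells were cultured overnight at 35.5C and loaded with Fluo-8 calcium dye for 40 to 90 min at room temperature. After a 10 s baseline, compound was added and calcium influx was read kinetically for 3 min (ex 480/em 520 nm).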
Sfp inh = inhibitors of Bacillus subtilis Sfp phosphopantetheinyl transferase | Q9F4F7 | 310,000 compounds, 3.5% hits | Potency, µM, without a hit: max response, negative = inhibition, actives largely listed as inhibitors | Biochemical Sfp PPTase activity, qHTS; active = well fitted inhibition curve with a large enough effect; inconclusive = small, poorly fitted or top-dose-only effect, or another doubt; inactive = no such curve, though single readings can be large or run the other way;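 note: the enzyme is Sfp with the accession as filed and its product quenches rhodamine fluorescence; potency is the fitted concentration of half-maximal effect; 0% = enzyme reaction without inhibitor and -100% = no enzyme wells; top concentration of the series not given in the record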
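Buffer: 50 mM Hepes-Na pH 7.6, 10 mM MgCl2, 0.01% Nonidet P-40, 0.01% BSA. Enzyme 15 nM, pre-exposed to compound 15 min; substrates then added and fluorescence change tracked over 30 min.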
CtBP-E1A inh = inhibitors of CtBP/E1A interaction; AlphaScreen GST-E1A/His-CtBP binding, 1536-well; active compounds read low; control for the full effect not named in the record; activity change, % (test concentration not listed); 340,000 compounds, 0.49% hits; AID 651724; in the data active means activity change below about -65%; inconclusive means about -30% to -65%; inactive means above about -30%; note: % is set by controls: 0 for no effect and ±100 for the full control effect
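Homogeneous bead-based format: GST-tagged E1A captured on glutathione donor beads, His-tagged CtBP on nickel acceptor beads; compounds precede bead addition by 2 h at 37 °C.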
PINK1 expr mod = PINK1 expression modulation; PINK1 immunofluorescence, high-content cytometry, 24 h; Potency, µM (highest dose often 76.6 µM), inactives show at the highest dose activation (PINK1 increase), actives largely listed as activators; 410,000 compounds, 0.2% hits; active = well fitted activation curve with a large enough effect; inconclusive = small, poorly fitted or top-dose-only effect; inactive = flat fitted curve, though single readings scatter; cell line not stated here;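 note: potency is the fitted concentration of half-maximal effect; % of control where 0% means no effect; nearly all actives have a fitted effect of over 65% in size; a mitochondrial uncoupler was the plate control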
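Fluorescence from anti-PINK1 antibody, together with nuclear and cell stains, was scanned on a laser-scanning cytometer. Before staining, stable-line cells were incubated 24 hours with compounds at 5 concentrations; primary antibody 12 h at 10 degrees C.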
D2 agonist = agonists of human D2 dopamine receptor (beta-arrestin); P14416; DiscoveRx PathHunter D2 beta-arrestin, luminescence, 90 min; 100% = 57 uM dopamine signal; activation, % (test concentration not listed); 360,000 compounds, 0.084% hits; AID 624465; in the data active = activation above about 40%; inconclusive = about 15% to 40%; inactive = below about 15%; note: compound concentration not given in the record; the text of the record calls up to 30% inactive
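Agonist mode: compounds alone added to overnight-plated D2 PathHunter cells for 90 min at 37 C, with 57 uM final dopamine (EC100) defining full response. Beta-arrestin recruitment detected by chemiluminescent reagent, read after 1 h at ambient temperature.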
Six1-Eya2 inh = Six1/Eya2 interaction inhibition; AlphaScreen GST-Six1/His-Eya2 binding, biochemical; active compounds read low; control for the full effect not named in the record; activity change, % (test concentration not listed); 360,000 compounds, 0.56% hits; in the data active = activity change below about -65%; inconclusive = about -30% to -65%; inactive = above about -30%; note: % is set by controls: 0 for no effect and ±100 for the full control effect
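Six1/Eya2 binding was read as AlphaScreen signal after compounds were pinned into GST-Six1 plus His-tagged Eya2 (5X stock 250/500 nM) in pH 8.0 Tris/NaCl/TCEP buffer, beads added, then incubated 1 h, 37 C, dark.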
D2 potentiator = human D2 receptor positive allosteric modulation; DiscoveRx D2 beta-arrestin cells, luminescence, 90 min; 100% = 57 uM dopamine signal; potentiation, % (no concentration beside the values); 360,000 compounds, 0.23% hits; AID 624464; active = potentiation of 50% or more; inconclusive = 30% to 50%; inactive = 30% or less;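 note: compound concentration not given in the record; tested on top of an EC20 dose of dopamine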
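D2 cells co-treated with compound plus 50 nM dopamine (EC20) for 90 min at 37 deg C to detect potentiation. Beta-arrestin recruitment was read as enzyme-fragment luminescence after 1 h at ambient temperature. Full response was set by 57 uM dopamine.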
Numbers without * were called inactive; ? = inconclusive; · = no result given; & = joins results of further samples; [ ] = another dose, or the depositor's remark. No enrichment for hits (roughly 3.7% active in at least one column).

SMILES	TRPV1 potentiator	Sfp inh	CtBP-E1A inh	PINK1 expr mod	D2 agonist	Six1-Eya2 inh	D2 potentiator
C/C(=C\c1ccccc1)C(=O)Nc1ccc(S(=O)(=O)Nc2ncccn2)cc1	8	6%	-3	4.4%	-9.8	3	-5
CC(C)OC(=O)c1cc(-c2ccc(C=O)o2)ccc1Cl	-19	-11%	4	-0.8%	-0.3	3	-14
O=C(CCN1CCc2ccccc2C(c2ccccc2)C1)c1ccc2c(c1)OCCO2 (stereo not given)	0	45µM*	-15	-2.5%	-3.0	-20	-41
CC(C)CCN1C(=O)CC(NNC(=O)c2ccc(S(=O)(=O)N3CCCC3)cc2)C1=O (stereo not given)	-5	-3%	·	-1.0%	-4.1	4	-12
Cc1ccc(C(=O)C(OC(=O)c2c(C)cc(=O)oc2C)c2ccccc2)cc1 (stereo not given)	-8	-17%	·	0.3%	-2.8	-1	-9
CN(Cc1ccccc1)C(=O)c1ccc(NC(=O)Cc2ccc(NC(=O)C3CCCN(C(=O)CCc4ccccc4)C3)cc2)cc1 (stereo not given)	·	·	0	-1.1%	0.0	2	-2
c1ccc2c(c1)CCN(c1nc(CN3CCOCC3)nc3sc4c(c13)CCCC4)C2	-6	-21%	-24	-0.1%	2.9	-19	-11
O=C(/C=C/c1cccc([N+](=O)[O-])c1)NCCN1C(=O)S/C(=C\c2cccnc2)C1=O	3	0%	9	2.2%	-1.5	0	10
CC1(c2nnnn2Cc2ccccc2)CCC(=O)N1CCCN1CCOCC1 (stereo not given)	·	·	8	-0.9%	·	3	·
COc1ccc(CNC(=O)c2ccc(CS(=O)(=O)c3ccc(Br)cc3)o2)cc1	5	3%	2	0.2%&-0.2%	5.2	-3	3
CCc1c(C)nc(SCC(=O)N2CCCCC2CC)[nH]c1=O (stereo not given)	-4	3%	9	1.9%	-2.2	4	-1
CCc1[nH]nc2c1C1(CCOC1C)C(C#N)=C(N)O2 (stereo not given)	0	12%	0	4.2%	-4.4	1	-3
CCOc1ccc(OCC)c(NC(=O)C2CCCN(C(=O)c3ccc(Cl)cc3)C2)c1 (stereo not given)	-6	·	-9	-1.9%	-2.2	-1	-14
Cc1ccc(NC(=O)CCc2nnc3ccc(N4CCOCC4)nn23)cc1C	-19	12%	-13	-0.5%	-4.2	5	-4
Cc1cccc(N(C)c2ncnc3onc(-c4ccc(F)cc4)c23)c1C	-10	0%	·	3.7%	-1.0	6	-5
CCN(C(=O)CCS(=O)(=O)c1cccc2nonc12)c1ccc(F)cc1	5	3%	4	1.7%	-2.5	7	1
Cc1cc(N2CCCC2)ccc1/C=N/n1cnnc1	-5	-6%	-1	-8.4%[38.3 µM]	-0.5	-6	-7
CC(C)n1c(Sc2nccn2C)nc2c1c(=O)n(C)c(=O)n2C	2	3%	6	·	-0.3	2	9
COc1ccc(C)cc1NC(=O)CC(O)(C(F)(F)F)C(F)(F)F	-6	11%	-1	·	1.4	0	-14
CC1CCN(CC(=O)N2CC(=O)Nc3ccccc32)CC1	-5	13%	3	?	-3.6	-1	-11
CC(C(N)=O)N1C(=O)NC2(CCCc3ccccc32)C1=O (stereo not given)	1	25%	-5	-0.3%	3.4	-2	-1
CCCc1nc(SCc2ccc(Cl)cc2Cl)n[nH]1	-31	8%	3	·	1.1	3	-12
COc1ccc(CCNc2nc(=O)[nH]nc2C)cc1OC	-4	5%	3	4.0%[38.3 µM]	-2.2	2	-7
CCC(Sc1nc2sc(C(=O)OC)c(C)c2c(=O)n1N)C(=O)N(CC)CC (stereo not given)	-10	-5%	4	49%[38.3 µM]	-3.3	-1	-8
COc1ccc([N+](=O)[O-])cc1NC(=O)COC(=O)c1ccccc1O	4	1%	-3	9.4%	-4.2	1	-1
CCOC(=O)c1c(NC(=O)Cc2cccs2)sc(C(=O)N2CCCCC2)c1C	-14	-24%	-9	-0.7%	0.2	-9	-21
O=C(Nc1ccc(F)cc1)c1nc[nH]c1C(=O)Nc1ccccc1[N+](=O)[O-]	11	-11%	4	?	2.2	-1	17
O=c1oc(Nc2ccccc2F)nc2ccccc12	18	9%	33	-0.4%	-4.1	22	-16
NC(=O)c1ncn([C@@H]2O[C@H](CNCc3cccc(OC4CCCC4)c3)[C@@H](O)[C@H]2O)n1	·	·	3	-0.2%	-4.1	0	-5
O=C(O)c1cc(CN2CCOCC2)oc1-c1ccccc1	4	-14%	5	-1.8%	0.0	5	-1

Some of these compounds in order of count of non-hydrogen atoms, falling.
SMILES	TRPV1 potentiator	Sfp inh	CtBP-E1A inh	PINK1 expr mod	D2 agonist	Six1-Eya2 inh	D2 potentiator
NC(=O)c1ncn([C@@H]2O[C@H](CNCc3cccc(OC4CCCC4)c3)[C@@H](O)[C@H]2O)n1	·	·	3	-0.2%	-4.1	0	-5
CCOC(=O)c1c(NC(=O)Cc2cccs2)sc(C(=O)N2CCCCC2)c1C	-14	-24%	-9	-0.7%	0.2	-9	-21
O=C(Nc1ccc(F)cc1)c1nc[nH]c1C(=O)Nc1ccccc1[N+](=O)[O-]	11	-11%	4	?	2.2	-1	17
COc1ccc([N+](=O)[O-])cc1NC(=O)COC(=O)c1ccccc1O	4	1%	-3	9.4%	-4.2	1	-1
COc1ccc(C)cc1NC(=O)CC(O)(C(F)(F)F)C(F)(F)F	-6	11%	-1	·	1.4	0	-14
O=C(O)c1cc(CN2CCOCC2)oc1-c1ccccc1	4	-14%	5	-1.8%	0.0	5	-1
O=c1oc(Nc2ccccc2F)nc2ccccc12	18	9%	33	-0.4%	-4.1	22	-16
CCCc1nc(SCc2ccc(Cl)cc2Cl)n[nH]1	-31	8%	3	·	1.1	3	-12

(next part)
SMILES	TRPV1 potentiator	Sfp inh	CtBP-E1A inh	PINK1 expr mod	D2 agonist	Six1-Eya2 inh	D2 potentiator
COC(=O)c1cc2sc(Cl)cc2n1CC(=O)NCCC(C)C	3	3%	2	-0.5%	-1.0	5	-9
Cc1ccc(C)c(NC(=O)C(CC(=O)O)Cc2ccccc2)c1 (stereo not given)	-5	12%	-5	-0.4%	2.8	11	-4
Cc1cc(-c2ccco2)c(C#N)c2nc3ccccc3n12	11	50µM*	-12	?	-1.9	-19	-5
O=C(CSc1nc2[nH]ncc2c(=O)n1-c1ccccc1)NCCc1ccccc1	?	18%	·	0.9%	-1.7	1	-1
Cc1ccc(C(=O)NNC(=O)c2ccccc2O)cc1S(=O)(=O)N1CCCCC1	-1	·	-15	1.3%	-0.1	-28	9
O=C(NC1CCCC1)c1cc(-c2ccccc2Cl)on1	-2	0%	16	4.5%	2.9	3	-16
COc1cccc(CNC(=O)CCC2CCCN(C(=O)c3ccoc3)C2)c1 (stereo not given)	-4	12%	-6	-1.6%	3.4	10	0
CN1CCCCC1(C)C(=O)NCc1ccc(F)cc1 (stereo not given)	·	·	6	-0.9%	-0.6	0	6
Cc1ccn(CCC(=O)N2CCc3ccccc32)n1	27	11%	·	1.2%	0.8	6	-7
Cc1cc(C)n(CC(=O)N/N=C/c2cccs2)n1	-9	7%	-5	-0.7%	-4.0	-1	-4
O=S(=O)(c1ccc(Br)cc1Cl)N1CCN(CCO)CC1	-2	18%	-28	-2.3%	-0.8	5	-3
CCOC(=O)C1(CCOc2ccccc2)CCN(Cc2ccc(OCCO)cc2)CC1	-8	1%	-5	-1.3%	-3.0	-6	-15
CCC(CC)NC(=O)Cn1c(C(C)NC(C)=O)nc2ccccc21 (stereo not given)	-9	9%	8	-0.2%	-2.2	11	-6
O=C(NC1CCCC1)c1ccc(CNc2c(N3CCOCC3)c(=O)c2=O)cc1	-3	1%	-3	3.8%	-2.1	1	-4
C#CCOCCOCCOCCNc1nc(N2CCN(C(=O)CCCCCCCCCCNC(=O)[C@H](CCCCN)n3cc(C)nn3)CC2)nc(N2CCN(C(=O)CCCCCCCCCCNC(=O)[C@H](CCCN=C(N)N)n3cc(C[C@@H](C)CC)nn3)CC2)n1	10	·	-22	-2.2%	1.8	-13	-15
COc1ccc(C(=O)O)cc1S(=O)(=O)Nc1cccc(C(F)(F)F)c1	?	15%	0	0.2%	-4.3	5	3
COCCOC(=O)N1CCCCC1c1cc(C(=O)Nc2cccc3c2CCCC3)no1 (stereo not given)	·	·	0	0.6%	3.6	-6	-5
O=C(COC(=O)CSc1ccc([N+](=O)[O-])cc1)NCc1ccco1	-6	·	0	0.1%	-0.7	0	14
O=C(NC1CC1)c1cccc(NC(=O)C2CCN(S(=O)(=O)c3cccc(C(F)(F)F)c3)CC2)c1	·	·	5	1.8%	11	1	-2
O=c1c2ccsc2ncn1Cc1cccc(C(F)(F)F)c1	1	10%	5	5.2%	-0.6	9	4
COc1ccc(-c2csc(/C(C#N)=C/Nc3cc4oc5ccccc5c4cc3OC)n2)cc1	10	-7%	14	0.7%	7.9	-3	11
Cc1ccc(-c2nc3ncccc3o2)cc1NC(=O)c1ccc([N+](=O)[O-])o1	2	12%	-3	-2.2%	4.8	-4	11
Nc1ccn([C@H]2CC[C@@H](CO)O2)c(=O)n1	2&-7	21%&-1%&3%&19%	-2	0.0%	-2.2	-5	-3
COC(=O)c1sc2nc3c(c(-c4cccs4)c2c1N)CCCC3	-1	79µM*	22	0.0%	-0.9	3	-6
COC(=O)CCn1nc(-c2ccc(C)cc2)c2ccccc2c1=O	17	3%	-25	0.6%	-16	1	-6
CCS(=O)(=O)NC(C)C(c1cccs1)N1CCN(c2ccc(F)cc2)CC1 (stereo not given)	-31	7%	1	2.5%	-1.1	-4	-2
CCCCC(CC(O)COCCC)c1n[nH]c(=S)n1-c1ccccc1 (stereo not given)	-13	?	4	-0.1%	7.7	0	-5
COC(=O)c1ccc(COc2nc(C)cc(C)c2C#N)o1	-4	8%	-17	0.0%[38.3 µM]	-0.5	-8	1
COc1cc(C(=O)N/N=C/c2sc(=O)n(-c3ccccc3)c2Cl)cc(OC)c1OC	0	10%	-6	2.3%	1.7	-29	-21
